# Prx2 Sm inh = inhibitors of Schistosoma mansoni peroxiredoxin 2; S. mansoni Prx2 activity coupled to TGR/GSH (TGR is thioredoxin glutathione reductase), NADPH fluorescence loss, qHTS; some inactives read as strong as hits; Potency, µM; hit rate 0.07% among 65,000; active means full or partial inhibition curve with a strong effect at the top dose; inconclusive means weaker partial or single-point curve; inactive means no accepted curve; also: series up to 57 µM; many of its hits are not listed in these tables
#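 Purified S. mansoni TGR and Prx2 in pH 7.4 phosphate buffer with EDTA and Tween-20 were preincubated with compounds for 15 min. Further NADPH/GSH was added, then a 2.5 mM H2O2 aliquot initiated turnover, followed kinetically by NADPH fluorescence.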
# Anthrax LT inh = anthrax lethal toxin internalization inhibition; Cells, anthrax lethal toxin internalization, FRET ratio (460/530); hit rate 0.67% among 70,000; Potency, µM (doses to about 40 µM), without a hit: at the highest dose activity change, negative = inhibition, usual class: inhibitors; AID 912; active = well fitted falling ratio curve with the 530 nm signal flat; inconclusive = other ratio curves, or a change in one channel alone; inactive = flat curves in the ratio and both channels; the % refers to the ratio; also: % is scaled to controls: 0 for no effect and ±100 for the full control effect; nearly all actives have a fitted effect of over 50% in size; tested in ME-180 cells; beta-lactamase reporter
# Active calls of the source: *; ? = inconclusive; / = not tested or not shown; & = joins results of further samples; [ ] = another dose, or the depositor's remark. Potency is read from the fitted curve at half-maximal effect. A portion of the library, so the mix of outcomes need not match the whole.
SMILES,Prx2 Sm inh,Anthrax LT inh
COc1ccc(N2CCN(C(CNC(=O)c3ccco3)c3cccnc3)CC2)cc1 (stereo not given),>57,1%
COc1ccc(-n2c(Cc3cccn3C)nnc2SCC(=O)Nc2ccc(F)cc2F)cc1,>57,-2%
CCN(CCCNC(=O)CCCn1c(=O)[nH]c2ccccc2c1=O)c1cccc(C)c1,>57,-2%
CC(=O)N1C(=O)C2(Nc3ccccc3N2)c2ccccc21,/,6%
COc1ccc(Cc2nnc3n2N=C(c2cc4ccccc4o2)CS3)cc1OC,>57,10%
CCOC(=O)C1=C(CC)Nc2ccccc2N=C1NC(=O)Cn1cnc2ccccc2c1=O,>57,-6%
CCN1CCC[C@@H](OC(=O)C(c2ccccc2)c2ccccc2)C1,>57,-1%[3.58 µM]
c1cc2c3c(cccc3c1)NC1(CCCCCC1)N2,>57,21%
Cc1nc2c(c(=O)n1Cc1ccco1)c1nc3ccccc3nc1n2Cc1ccccc1,>57,?
COc1cccc(N2CCN(C(=O)CN(c3ccc(C)cc3)S(=O)(=O)c3c(C)n[nH]c3C)CC2)c1,>57,-2%
Cc1nn(-c2ccccc2)c2sc(C(=O)OC3CCOC3=O)cc12 (stereo not given),>57,-1%
Cn1c(=O)c2c(O)cc(=O)[nH]c2n(-c2ccccc2)c1=O,>57,0%
O=C(c1cc(C(F)(F)F)cc(C(F)(F)F)c1)N1CCC2(CCCN(Cc3nccs3)C2)CC1,>57,?
CCC(=O)N1CCN(c2ccccc2NC(=O)COc2ccccc2Cl)CC1,>57,-23%
CC(C)[N+](C)(CCOC(=O)C1c2ccccc2Oc2ccccc21)C(C)C,>57&>57,-8%[3.58 µM]
CCOc1ccc(CC(=O)C2C(=O)CCCC2=O)cc1OCC,>57,3%
O=C(COC(=O)c1cccnc1)Nc1ccc(F)cc1,>57,-10%
c1ccc(-c2n[nH]nc2-c2ccccc2)cc1,>57,-9%
COc1ccc(C(=O)NCc2c(CC(C)C)oc(C)c2C(=O)O)cc1,>57,?
CCC(C)Sc1nc2c(c(=O)n1C)SC(C)C2 (stereo not given),>57,11%
Cc1[nH]c(=O)[nH]c(=O)c1S(=O)(=O)N(C)Cc1ccccc1,>57,-12%
COC(=O)c1c(NS(C)(=O)=O)sc2c1CCCC2,>57,?
CCN(CC)c1ccc(NC(=O)CC2Oc3ccccc3NC2=O)c(C)c1 (stereo not given),>57,?
Cc1cc(Nc2ccc(F)cc2C)n2ncnc2n1,>57,-4%
O=c1cc(CO)oc(CN2CCCC2)c1O,>57,-3%
CCCCCC(=O)Nc1ccc(S(=O)(=O)Nc2nccnc2OC)cc1,>57,2%
CN(C)c1nc(-c2cccc(C#N)c2)nc2ccccc12,>57,?
COc1ccc(-c2nnc(SCC(=O)c3cc(C)n(Cc4cccs4)c3C)o2)cc1,>57,-4%
CN(c1ccccc1C(=O)NCc1ccco1)S(C)(=O)=O,>57,-3%
CCN1CCn2c3c(c4cc(C)ccc42)CCCC31 (stereo not given),/,?
c1csc(-c2nn3c(Cn4nnc5ccccc54)nnc3s2)c1,>57,-3%
O=C(c1ccc2c(c1)OCO2)N1CCN(c2ccc(Cl)cc2)CC1,/,-11%
COc1ccccc1OCCC(=O)OCCN1C(=O)c2ccccc2C1=O,>57,?
COc1cc(CNc2ccc3[nH]c(=O)[nH]c3c2)cc(Cl)c1OCC(=O)NC(C)(C)C,>57,-7%
COc1ccc(/C=C(\C#N)C(N)=O)c(OC)c1,>57,2%[8 µM]
O=C(CSc1nc(-c2ccc(F)cc2)cs1)N1CCN(C(=O)c2ccco2)CC1,>57,-8%
CCC(C)N1C(=O)CCC1C(=O)NCc1ccc2c(c1)OCO2 (stereo not given),>57,4%
CC(C)CNC(=O)C1CCCN(S(=O)(=O)c2ccc(-n3cnnn3)cc2)C1 (stereo not given),>57,-17%
Nc1c(Br)cc(Br)cc1CNC1CCC(O)CC1 (stereo not given),>57,-12%
N[C@@H](Cc1cc(CP(=O)(O)O)cc(-c2ccccc2Cl)c1)C(=O)O,>57,-7%
CCOc1ccc(C(=O)NCCn2cc(SCC(=O)Nc3cc(C)on3)c3ccccc32)cc1,>57,-11%
NC(=O)c1nn(-c2ccccc2)nc1NC(=O)CN1CCCCC1,>57,15%
COc1ccc2[nH]c(C)c(CN3CCCC(C)C3)c(=O)c2c1 (stereo not given),>57,-3%
N#C/C(Cn1c[n+](NC(=O)Nc2ccccc2)cn1)=N/O,>57,15%
CC1CN(CC(O)COc2ccccc2C(C)(C)C)CC(C)O1 (stereo not given),>57,-11%
CCN1c2ccccc2NC2N=C(OC)C(c3ccccc3)C21 (stereo not given),>57,-18%
CCOC(=O)c1sc(SCC(=O)Nc2ccc(N(C)C)cc2)nc1N,>57,-5%
O=C(Cn1cnc2c(oc3ccccc32)c1=O)N1CCCc2ccccc21,>57,1%
COc1ccc2cc3cc(C(=O)Nc4ccc5c(c4)OCO5)oc3nc2c1,>57,-15%
O=C(CSc1nnnn1-c1ccccc1)Nc1ccc(Cl)cn1,>57,-16%
C=CCn1c(COc2cccc3ccc(C)nc23)nnc1SCC(N)=O,/,11%
C[C@H]1CN(S(=O)(=O)c2cccc3cnccc23)CCN1,>57,9%
O=C1Cc2ccccc2C(c2ccccc2)N1 (stereo not given),/,-6%
Cc1ccc(N2C(=O)NC(=O)C3(Cc4ccccc4N4CCN(c5ccccc5)CC43)C2=O)cc1 (stereo not given),>57,?
OB(O)c1cc2ccccc2s1,/,?
COc1cccc(-c2cc(C(=O)N3CC4(C)CC3CC(C)(C)C4)no2)c1 (stereo not given),>57,8%
CCOc1ccc(C(=O)Nc2ccc3c(c2)OCO3)cc1OCC,>57,-27%
O=C(C1CCN(S(=O)(=O)N2CCC3(CC2)OCCO3)CC1)N1CCC(Cc2ccccc2)CC1,>57,-8%
COc1cccc(C(c2nnnn2Cc2ccccc2)N2CCN(C3CCCC3)CC2)c1OC (stereo not given),>57,0%
Oc1cccnc1CN1CCCCC1,>57,-5%[8 µM]

# 19 of the compounds above, with values under each structure:
# The line under a structure holds: Prx2 Sm inh, Anthrax LT inh
> Nc1c(Br)cc(Br)cc1CNC1CCC(O)CC1 (stereo not given)
 : >57, -12%
> N[C@@H](Cc1cc(CP(=O)(O)O)cc(-c2ccccc2Cl)c1)C(=O)O
 : >57, -7%
> CCOc1ccc(C(=O)NCCn2cc(SCC(=O)Nc3cc(C)on3)c3ccccc32)cc1
 : >57, -11%
> NC(=O)c1nn(-c2ccccc2)nc1NC(=O)CN1CCCCC1
 : >57, 15%
> COc1ccc2[nH]c(C)c(CN3CCCC(C)C3)c(=O)c2c1 (stereo not given)
 : >57, -3%
> N#C/C(Cn1c[n+](NC(=O)Nc2ccccc2)cn1)=N/O
 : >57, 15%
> CC1CN(CC(O)COc2ccccc2C(C)(C)C)CC(C)O1 (stereo not given)
 : >57, -11%
> CCN1c2ccccc2NC2N=C(OC)C(c3ccccc3)C21 (stereo not given)
 : >57, -18%
> CCOC(=O)c1sc(SCC(=O)Nc2ccc(N(C)C)cc2)nc1N
 : >57, -5%
> O=C(Cn1cnc2c(oc3ccccc32)c1=O)N1CCCc2ccccc21
 : >57, 1%
> COc1ccc2cc3cc(C(=O)Nc4ccc5c(c4)OCO5)oc3nc2c1
 : >57, -15%
> O=C(CSc1nnnn1-c1ccccc1)Nc1ccc(Cl)cn1
 : >57, -16%
> C=CCn1c(COc2cccc3ccc(C)nc23)nnc1SCC(N)=O
 : /, 11%
> C[C@H]1CN(S(=O)(=O)c2cccc3cnccc23)CCN1
 : >57, 9%
> O=C1Cc2ccccc2C(c2ccccc2)N1 (stereo not given)
 : /, -6%
> Cc1ccc(N2C(=O)NC(=O)C3(Cc4ccccc4N4CCN(c5ccccc5)CC43)C2=O)cc1 (stereo not given)
 : >57, ?
> OB(O)c1cc2ccccc2s1
 : /, ?
> COc1cccc(-c2cc(C(=O)N3CC4(C)CC3CC(C)(C)C4)no2)c1 (stereo not given)
 : >57, 8%
> CCOc1ccc(C(=O)Nc2ccc3c(c2)OCO3)cc1OCC
 : >57, -27%

# Following part
SMILES,Prx2 Sm inh,Anthrax LT inh
Nc1ccc(S(N)(=O)=O)cc1,>57,5%
Clc1ccccc1C1=Nn2c(nnc2-c2ccncc2)SC1,>57,13%
CCOC(=O)c1cccc(NC(=O)Cn2cc3c(n2)CCC(C)C3)c1 (stereo not given),>57,-26%
C/C(O)=C(\C#N)c1nnc2n1CCCCC2,>57,2%
COCC(C)n1c(SCC(=O)N2CCCCC2)nc2ccccc2c1=O (stereo not given),>57,-3%
Cc1c(C(N)=O)sc(N)c1C(=O)OC(C)C,/,14%
C1CCN(CC[C@@H]2CCCCN2)CC1,>57,3%[8 µM]
CCCn1c(SCC(=O)c2cc(OC)ccc2OC)nnc1C(C)C,>57,-14%
Cc1cccc2c(=O)cc(C)n(CC(=O)N3CCOCC3)c12,/,10%
O=c1c(-c2ccc(F)cc2)nc2cnc(N3CCNCC3)nc2n1Cc1cccs1,>11,?
CCN(CC)/C(=N/O)NC(=O)NS(=O)(=O)c1ccc(C)cc1,>57,9%
CCc1c(O)nc(SCC(=O)N2CCOCC2)n(-c2ccccc2)c1=O,>57,15%
O=C(O)CCCC(=O)Nc1ccc(Br)cc1C(=O)O,>57,-10%
COC(=O)c1[nH]c2cc(OC)ccc2c1N,>57,4%
CCOc1ccccc1NC(=O)CSc1nccn1-c1ccccc1,>57,-9%
Cc1cc2c3nonc3ccc2n1-c1ccccc1,/,?
O=C1CSC(c2cccc(F)c2)N1c1ccccc1F (stereo not given),>57,-1%
COC(=O)c1[nH]c2ccc(C)cc2c1NC(=O)CN1CCN(C(=O)c2ccccc2)CC1,>57,3%
O=c1c(-c2cccc(Cl)c2)nc2cncnc2n1Cc1ccc(F)cc1,>57,-13%
Nn1c(Cc2cccc3ccccc23)nnc1SC1CCOC1=O (stereo not given),>57,9%
CCn1c(NC2CCCCC2)nc2ccccc21,>57,-9%
CC(C)c1nc2oc3c(N4CCN(C)CC4)ncnc3c2c2c1CCC2,>57,-8%
COc1cccc(-n2nnc3c(=O)n(Cc4cccc(F)c4)cnc32)c1,>57,?
O=C(CN1CCOCC1)Nc1cccc(Br)c1,>57,1%
O=C(CSC1=NCCN1)C1COc2ccccc2O1 (stereo not given),/,15%
O=c1c2[nH]c3cccc(Cl)c3c2ncn1CCN1CCCCC1,>57,2%
Cc1cc(C)n2nc(C)[n+](C)c2n1,>57,5%
c1ccc(Cc2nnc3sc(C4COc5ccccc5O4)nn23)cc1 (stereo not given),>57,-5%
COc1ccc(C(CC(=O)NCCCN2CCOCC2)NS(=O)(=O)c2ccc(C)cc2)cc1 (stereo not given),>57,0%
Cc1cccc(CCNS(=O)(=O)c2ccc3c(c2)oc(=O)n3C)c1,>57,10%
Cc1cc2c(ccc3c2no[n+]3[O-])nn1,>57,/
CN1C(=O)/C(=C2/C=Cc3ccccc3N2CCCS(=O)(=O)O)SC1=S,>57,-6%
CC(C)(C)c1nc(NCCN2CCOCC2)c2nnn(Cc3ccccc3Cl)c2n1,>57,?
CC(=O)[O-].CC(=O)[O-].O.O.[Cd+2],/,24%
CCN1C(c2ccc(F)cc2)=CS/C1=C(\C#N)c1nnc2n1-c1ccccc1SC2,>57,-7%
CCCn1c(SCC(=O)NCCc2ccc(OC)c(OC)c2)nc2c1c(=O)n(C)c(=O)n2C,>57,-8%
O=C(c1nn2cccnc2c1Cl)N1CCN(c2ccccc2)CC1,>57,12%
O=C(Cc1cccs1)Nc1nncs1,>57,?
O=[n+]1c2c(n([O-])c3c1CCCC3)CCCCC2,>57,-7%
CN(C)CCCN(C(=O)c1cccs1)c1nc(-c2ccccc2)cs1,>57,?
O=C(OCC#CCSc1nnc(-c2ccccc2)o1)c1ccco1,>57,-14%
O=C(NCc1nc2ccccc2[nH]1)c1ccco1,>57,4%
CCN1C(=O)c2cccc3c(S(=O)(=O)Nc4nc(C)cs4)ccc1c23,>57,?
C=CCn1c(O)c(C(C)=Nc2ccc(C(=O)OCC)cc2)c(=O)[nH]c1=O,>57,-8%
Cc1ccc2[nH]c(C(=O)O)c(-c3ccccc3)c2c1,>57,-7%
O=C(CSC1=NCCN1)Nc1ccccc1,>57,?
CC1Oc2ccccc2N(CC(=O)c2cccc(Cl)c2)C1=O (stereo not given),>57,-27%
COC(=O)c1ccccc1NC(=O)NCc1ccc2c(c1)OCO2,>57,5%
COC(=O)COc1ccc(NC(=O)C2CCCO2)cc1 (stereo not given),>57,1%
CCN(CC)CCN1C(=O)C(=O)/C(=C(/O)c2ccc(OC)c(OC)c2)C1c1ccccn1 (stereo not given),>57,-9%
O=C(Nc1ccc(N2CCN(C(=O)c3ccco3)CC2)cc1)c1ccccc1F,>57,-1%
COCCNC(=O)c1cc2cc(Br)cc(OC)c2oc1=O,>57,-7%
Cc1nc(-c2cccc(S(=O)(=O)N3CC(C)OC(C)C3)c2)cs1 (stereo not given),>57,1%
Nc1nc(-c2ccccc2)c(-c2ccccc2)c(-c2nc(N)nc(-c3ccccc3)c2-c2ccccc2)n1,>57,-13%[8 µM]
CC1CC(=O)O1 (stereo not given),/,-3%
Cc1cccc(NC2=NCC(=O)N2Cc2ccccc2)c1,>57,?
CCCCCOC(=O)CSc1nc2c(c(=O)[nH]c(=O)n2C)n1CCc1ccccc1,>57,-9%
COc1ccc(CCNC(=O)c2c(O)c3cccc4c3n(c2=O)CC4)cc1OC,>57,?
C[C@@]12C=CC(=O)C=C1CC[C@H]1[C@H]3CC[C@](O)(C(=O)CO)[C@]3(C)CC(=O)[C@@H]12,>57,2%[3.58 µM]
